# NPYLR7 ag – mosquito NPYLR7 agonism | activation, % at 10 µM | actives 0.15% (n = 270,000) | HEK293T NPYLR7/Galpha15, GCaMP6s calcium fluorescence; in the data active = activation above about 40%;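 also: 0% = vehicle and 100% = reference agonist at the receptor; some compounds past the cut are filed as inactive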
# NPYLR7 ag max-min – further read-out of NPYLR7 ag, marked with its call; activation, %; measured here: Max-Min RFU normalised activation; some inactives read as strong as hits;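 span of the calcium signal over five minutes; 0% = vehicle and 100% = native peptide agonist; compound fluorescence can raise it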
# * = called active by the depositor. This is a subset; the hit share may differ from the screen's.
SMILES,NPYLR7 ag,NPYLR7 ag max-min
COc1cc(C(=O)O[C@H]2CC[C@@]3(C)[C@@H]4CC[C@H]5[C@]6(O)C[C@H](O)[C@@]7(O)[C@@H](CN8C[C@@H](C)CC[C@H]8[C@@]7(C)O)[C@]6(O)C[C@@]53O[C@@]24O)cc(OC)c1OC,-8,-8
Cc1cc(C)nc(NS(=O)(=O)c2ccc(NC(=O)C(C)C)cc2)n1,20,19
CN1C(=O)C(C=NN(c2ccccc2)c2ccccc2)c2ccccc21 (configuration not stated),5,4
COC(=O)c1ccc(N2CCN(C(C)=O)CC2)c(NC(=O)c2ccc(OCc3ccccc3)cc2)c1,-6,-3
CC(NC(=O)c1ccc(Cl)cc1Cl)c1nc2cc(Cl)ccc2c(=O)n1C (configuration not stated),10,16
COc1cccc(COC(CN2CCN(S(=O)(=O)c3cc(C)ccc3OC)CC2)c2ccc(Cl)cc2)c1 (configuration not stated),23,18
O=C(CNC(=O)Cc1ccccc1)N=Nc1c(O)n(CCc2ccccc2)c2ccccc12,2,-8
C=CCOc1ccc(/C=C2\C(=O)N(c3ccccc3)N=C2C)cc1OC,-8,1
CCCCC(C(N)=O)N1C(=O)C2C3C=CC(C3)C2C1=O (configuration not stated),1,-3
COCCCN1COc2ccc3c(=O)c(Oc4ccccc4Br)coc3c2C1,12,11
O=C1C(=O)N(CO)c2ccccc21,6,4
C=CCN(CC(=O)N1CCc2sccc2C1COc1cccc(F)c1)C(=O)c1cccc(OC)c1 (configuration not stated),-1,5
Cc1ccc(C2(c3noc(CN(C)Cc4nc5ccc(F)cc5[nH]4)n3)CCCC2)cc1,1,-2
O=C1CSC(=S)N1N1C(=O)C2C3C=CC(C3)C2C1=O (configuration not stated),-1,-4
COC(=O)c1ccc(-c2nc(CN3CCCC(c4nc5ccccc5o4)C3)c(C)o2)cc1 (configuration not stated),-10,-15
CO[C@H]1[C@H](NC(=O)c2ccccn2)c2ccccc2C12CCN(C(=O)C1=C(C)OCCO1)CC2,19,4
COc1ccc(N=Cc2nc(-c3ccccc3)oc2O)cc1,-7,-12
O=C(Oc1ccc2oc3c(c2c1)CCCC3)c1cccs1,0,-1
O=C(Nc1ccc2c(c1)CCC2)c1cc2n(n1)CCN(Cc1cccc(C(F)(F)F)c1)C2=O,24,31
O=c1[nH]c(=O)n(C2CC(O)C(CO)O2)cc1F (configuration not stated),12,4
CCc1nc(C)cc(N2CCCC(C(=O)c3ccccc3OC)C2)n1 (configuration not stated),1,0
O=C(COc1cccc(Br)c1)N=Nc1c(O)[nH]c2ccc(F)cc12,10,7
C=CCOc1ccc(CNn2cn[nH]c2=S)cc1OC,7,5
CC(C)CC1N=C2c3ccccc3N=C(SCc3cc(=O)n4ccccc4n3)N2C1=O (configuration not stated),25,9
CN(Cc1cc(-c2ccccc2)n[nH]1)c1nccc(N2CCC(O)CC2)n1,-2,7

# Some of these compounds in order of count of non-hydrogen atoms, highest first:
SMILES,NPYLR7 ag,NPYLR7 ag max-min
COc1cc(C(=O)O[C@H]2CC[C@@]3(C)[C@@H]4CC[C@H]5[C@]6(O)C[C@H](O)[C@@]7(O)[C@@H](CN8C[C@@H](C)CC[C@H]8[C@@]7(C)O)[C@]6(O)C[C@@]53O[C@@]24O)cc(OC)c1OC,-8,-8
COC(=O)c1ccc(N2CCN(C(C)=O)CC2)c(NC(=O)c2ccc(OCc3ccccc3)cc2)c1,-6,-3
C=CCN(CC(=O)N1CCc2sccc2C1COc1cccc(F)c1)C(=O)c1cccc(OC)c1 (configuration not stated),-1,5
CO[C@H]1[C@H](NC(=O)c2ccccn2)c2ccccc2C12CCN(C(=O)C1=C(C)OCCO1)CC2,19,4
O=C(Nc1ccc2c(c1)CCC2)c1cc2n(n1)CCN(Cc1cccc(C(F)(F)F)c1)C2=O,24,31
COC(=O)c1ccc(-c2nc(CN3CCCC(c4nc5ccccc5o4)C3)c(C)o2)cc1 (configuration not stated),-10,-15
Cc1ccc(C2(c3noc(CN(C)Cc4nc5ccc(F)cc5[nH]4)n3)CCCC2)cc1,1,-2
CN(Cc1cc(-c2ccccc2)n[nH]1)c1nccc(N2CCC(O)CC2)n1,-2,7
CC(NC(=O)c1ccc(Cl)cc1Cl)c1nc2cc(Cl)ccc2c(=O)n1C (configuration not stated),10,16
O=C(COc1cccc(Br)c1)N=Nc1c(O)[nH]c2ccc(F)cc12,10,7
COc1ccc(N=Cc2nc(-c3ccccc3)oc2O)cc1,-7,-12
O=C(Oc1ccc2oc3c(c2c1)CCCC3)c1cccs1,0,-1
C=CCOc1ccc(CNn2cn[nH]c2=S)cc1OC,7,5
O=C1CSC(=S)N1N1C(=O)C2C3C=CC(C3)C2C1=O (configuration not stated),-1,-4
O=C1C(=O)N(CO)c2ccccc21,6,4

# Continued.
SMILES,NPYLR7 ag,NPYLR7 ag max-min
CCc1nc2ccc(C(=O)N3CCN(c4ccccc4)CC3)cn2c1N(C)C(=O)Nc1ccccc1OC,-5,-9
O=C(O)CCC(=O)N1Cc2[nH]cnc2C[C@H]1C(=O)NC1CCCCC1,-9,-17
Cc1ccc(Cc2nc(N3CCCN(C(=O)c4ccccc4Br)CC3)c3c(C)nn(-c4ccc(F)cc4)c3n2)cc1,-4,-3
CN1CC[C@H](N(Cc2ccccc2)C(=O)c2cnccn2)C[C@H](O)C1,3,14
COc1cccc(CN(CCc2c[nH]c3ccccc23)Cc2nc(C(=O)N3CCN(C(C)=O)CC3)co2)c1,18,8
COc1cccc(-c2nnc3ccc(OCCNC(=O)CC(C)C)nn23)c1,-7,-12
N#Cc1ccc(NC(=O)Cc2ccc(Cl)c(Cl)c2)cc1,6,3
CC1(C)OC(=O)C(C(c2ccco2)C(C#N)C(N)=O)C(=O)O1 (configuration not stated),2,2
O=C(CSc1ccccn1)NC1CCCc2c1cnn2-c1ccc(F)cc1F (configuration not stated),1,0
Cc1cccc(CN2CCCC3(CCN(Cc4cccc(OCCO)c4)C3)C2)c1 (configuration not stated),4,1
Cc1cccc(CCNC(=O)NCc2cc(C(C)C)no2)c1,0,-4
CCc1nc2ccc(C(=O)NCCC(C)C)cn2c1N(C)CCCc1ccccc1,3,4
O=C(Nc1cc(-c2onc3c2CCCC3)ccc1Cl)c1cc(F)c(F)c(F)c1F,5,8
COc1cc(Nc2ncc3c(n2)CCN(C(=O)Nc2ccc(C(C)C)cc2)C3)cc(OC)c1OC,-5,-9
COc1cc(NC(=O)c2cnn3c2NC(c2ccco2)CC3C(F)(F)F)c(OC)cc1Cl (configuration not stated),2,-7
Cc1cc(=O)[nH]c(-n2nc(C)c(CCC(=O)NCC3CCCO3)c2C)n1 (configuration not stated),1,-2
CCc1ccc(C(C2Sc3nc(CC)nn3C2=O)N2CCN(C(C)=O)CC2)cc1 (configuration not stated),-3,-10
CC1(C(=O)NS(=O)(=O)c2ccc3c(c2)CCO3)CCN1C(=O)C1(c2ccc(Cl)cc2)CCC1 (configuration not stated),-1,-2
NC1(C(=O)NCC2CCN(Cc3nc4ccccc4[nH]3)CC2)CC1,9,5
CCN(C(=O)c1sc(NC(=O)CCl)c(C#N)c1C)C1CCCCC1,-7,-14
Cc1[nH]c(C(=O)OCC(=O)N2CCC(C)CC2)c(C)c1C(=O)OC(C)C,-5,-6
Cc1ccc(C)c(NC(=O)CSc2ccc(-c3sc(-c4cccnc4)nc3C)nn2)c1,2,0
Cc1cc(C(=O)N2C[C@H](O)[C@H]3C[C@@H]2CC[C@H]3O)c(C)o1,23,29
COCCCNC(=O)c1c(O)nc2cc(C)ccn2c1=O,-3,10
Cc1nn(CC(=O)N2CCCC2)c(C)c1[N+](=O)[O-],-1,-6
SMILES,NPYLR7 ag,NPYLR7 ag max-min
CCc1nc2c(OCc3ccc(Cl)cc3Cl)cccn2c1N(C)C(=O)CC(C)C,6,6
O=c1oc2cc(O)ccc2cc1-c1csc(N/N=C\c2ccccc2)n1,-10,-13
CC1(C(=O)NS(=O)(=O)c2ccc(Br)cc2)CCN1C(=O)c1cccc(F)c1 (configuration not stated),-3,-3
Nc1c(C=Nc2ccccc2)ccc2c1C(=O)c1ccccc1C2=O,-2,-5
CCCC(=O)Nc1ccc(CC(=O)N2CCC[C@H]2C(N)=O)cc1,2,0
CNC(=O)c1ccc(OC)c(-c2ccc3c(c2)OCCO3)c1,-5,-8
O=C(Nc1ncc([N+](=O)[O-])s1)c1cccnc1,2,-1
CS(=O)(=O)c1ccc(S(=O)(=O)NC2C3CC4CC(C3)CC2C4)cc1 (configuration not stated),5,4
CCN(C(=O)c1cc2cc(Br)ccc2oc1=O)c1cccc(C)c1,6,3
CN1CCN(n2ccc3c(cnc4nc(-c5ccccc5)nn43)c2=O)CC1,4,6
Cc1nn(CC(=O)NC(C)C)c(=O)c2cccn12,-1,-4
CCn1c(C(=O)NCCCN(C)C)cc2oc(C)cc21,-7,-7
CC(C(=O)NCC#Cc1cccc(C(F)(F)F)c1)N1C(=O)C2CC=CCC2C1=O (configuration not stated),0,9
Cc1n[nH]c(C)c1CC(C)C(=O)NCCc1nc2c(s1)CCCC2 (configuration not stated),1,-13
CCCC(CCC)NCc1cnc(SC)nc1N1CCN(C)CC1,-1,-6
O=C(O)C1C2C=CC(C2)C1C(=O)NCc1ccco1 (configuration not stated),6,6
COc1ccc(CC2CN(C(=O)c3ccc4nccnc4c3)CCO2)cc1 (configuration not stated),24,9
O=S(=O)(NCc1ccccn1)c1ccc(S(=O)(=O)N2CCCC2)cc1,2,0
Cc1ccc(-c2cc3c(=O)n(CC(=O)Nc4ccc(Cl)c(C(F)(F)F)c4)ccn3n2)cc1,7,6
COC(=O)[C@@H]1C[C@H](NC(=O)Nc2ccc(OC)c(Cl)c2)CN1C,9,8
Cc1nc2sccn2c(=O)c1NC(=O)Nc1ccc2c(c1)OCCO2,18,12
CC(Sc1nnc(-c2ccc(F)cc2)o1)c1ccc(F)cc1 (configuration not stated),1,5
COc1cccc(COC2CN(Cc3ccccn3)C(=O)CN(C(=O)c3csc(C(C)=O)c3)C2)c1 (configuration not stated),-13,-16
CCOC(=O)C1(O)CSc2nc3sc4c(c3c(=O)n21)CCC4 (configuration not stated),2,0
CCC(C)NC(=O)CCN(CC(C)C)c1nc(-c2ccc(F)cc2)nc2cc(Cl)ccc12 (configuration not stated),15,2
SMILES,NPYLR7 ag,NPYLR7 ag max-min
N#Cc1c(NC(=O)C2CCCO2)sc2c1CCCC2 (configuration not stated),-3,-2
Cc1nc2sc3c(c2c(=O)[nH]1)CCC(C)C3 (configuration not stated),6,5
Fc1ccc(C=NNC2=NCCCCC2)cc1,4,36
O=C(COc1cccc(C(F)(F)F)c1)NCCCn1nc(-c2ccco2)ccc1=O,-4,-4
COCc1c(Br)c(C)nc(OCC(=O)N/N=C\c2ccc(-c3ccc(Br)cc3)o2)c1C#N,9,9
COCCNc1nc(N2CCOCC2)c2cnn(C)c2n1,6,5
O=c1[nH]ncc2ccccc12,7,5
O=C(NCc1cccc(F)c1)c1nn(-c2ccc(Cl)cc2)c(=O)n(Cc2ccc(C(F)(F)F)cc2)c1=O,12,8
CCOC(=O)c1ccc(NC(=O)Nc2ccc(N3CCC(C)CC3)c(C(=O)NCCCOC)c2)cc1,21,25
CCc1onc(C)c1C(=O)Nc1ccc(Br)cc1F,9,2
CCC1CCC(N(CC(=O)NC(C)C(=O)N(C)C)C(C)c2ccc(F)cc2)CC1 (configuration not stated),0,-1
CN(Cc1cccnc1)C1CCN(CCc2ccccn2)CC1,3,2
CC(c1ccc(-c2ccc3nc(CO)[nH]c3c2)cc1)N1CCCCC1 (configuration not stated),6,-2
COc1ccc(S(=O)(=O)CC(=O)N2CCN(c3nc4c(C)ccc(Cl)c4s3)CC2)cc1,5,0
CCOC(=O)c1cc(C(C)(C)C)n(C2CCN(C(=O)c3ccccc3F)CC2)n1,4,1
Cc1c(N=Cc2ccccn2)c(=O)n(-c2ccccc2)n1C,-4,-10
CCOC(=O)C1(Cc2ccccc2)C(=O)OC(C)(C)C(C)(C)C1=O (configuration not stated),-8,-10
CC(=O)NC(C(=O)Nc1nc(-c2ccc(C)s2)cs1)C(C)C (configuration not stated),3,2
CCN(CC)S(=O)(=O)c1cc(C)c(C)c(NS(=O)(=O)c2ccc(C(=O)O)cc2)c1,15,18
Cn1c(SCc2nnc(-c3cccc(Cl)c3)o2)n[nH]c1=O,11,6
Clc1ccccc1Cn1ccnc1CNCc1cccnc1,6,6
CCOP(=O)(CCCCNC(=O)C1(C)CCc2c(C)c(O)c(C)c(C)c2O1)OCC (configuration not stated),-11,-9
CCCN(CCC)C(=O)c1cc(-c2ccc(OC)cc2)nc2cc(-c3ccc(Cl)cc3)nn12,-4,2
CCCC1CCc2ccccc2N1S(=O)(=O)c1ccc2c(c1)CCN2C(C)=O (configuration not stated),-1,-3
Cc1ccc(NC(=O)C(C)Oc2ccc(F)c(F)c2)cc1F (configuration not stated),3,3
SMILES,NPYLR7 ag,NPYLR7 ag max-min
COc1cccc(C(=O)NCCNc2cc(-n3cccn3)nc(C)n2)c1OC,-10,-13
COc1cc(C(C)NC(=O)C2CCN(c3ncccn3)CC2)ccc1OCC(C)C (configuration not stated),-8,-7
Cc1ccc(C(N)=O)c(OC(C)C(=O)N2CCCCCC2)c1 (configuration not stated),0,-1
Cc1ccc2nc(C)n(C3CCN(C(=O)C4CCOC4)CC3)c2c1 (configuration not stated),1,10
COc1cccc(C(=O)OCn2c(SC)nnc(C)c2=O)c1,0,-2
COC1(C)CC(N(C)c2cc(Cl)nc(C)n2)C1(C)C (configuration not stated),8,7
CC(NCC(=O)Nc1cccc(S(C)(=O)=O)c1)c1ccc2c(c1)OCCO2 (configuration not stated),-6,-5
Cc1nc(N2CCN(C)CC2)ncc1-c1cc(=O)[nH]c(NCCc2ccccc2)n1,5,2
Cc1ccccc1C(NC(=O)C1CCN(CCOc2ccc(Br)cc2)CC1)c1ncccc1C (configuration not stated),1,-3
O=C(NCCc1ccncc1)C1CCC(=O)N(CCCc2ccccc2)C1 (configuration not stated),0,-2
CCOC(=O)c1ccc(NC(=O)CSc2c(C)cnc3c2c(=O)n(C)c(=O)n3C)cc1,7,12

# Source: PubChem
